MgrA DNA FP = S. aureus MgrA-DNA binding modulation; 84,000 compounds, 0.13% hits; inhibition, %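 (about 10 µg/mL by stock and volumes)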; fluorescence polarization;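 active = above 50% in either of two replicates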;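 also: 0% = protein plus DNA without compound and 100% = DNA alone without protein; higher means less MgrA bound to DNA so lower polarization; one replicate is shown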
Sa helicase inh = blocks Staphylococcus aureus DNA helicase; purified S. aureus helicase, fluorescence unwinding assay; about half of the hits fall short of the stated cut; inhibition, %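 (tested at about 80 µM)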; 120,000 compounds, 0.05% hits; AID 485395;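 active = both duplicates at 50% or more, or one of them with a favoured structure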;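 also: 0% = mean of negative control wells and 100% = mean of positive control wells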
* marks the source's active call; other numbers are inactive results; . = no result given. Only part of the results is shown; rates above refer to the full screens.

Start of the data: the first 19 entries, ahead of the listing:
SMILES | MgrA DNA FP | Sa helicase inh
CC(=O)N1CC(C(=O)Nc2ccc(S(=O)(=O)N3CCOCC3)cc2)Oc2ccccc21 (stereo not drawn) | . | 10
CCC(=O)NC(Nc1ccc(O)cc1)(C(F)(F)F)C(F)(F)F | -0.4 | .
CCN(CC1COc2ccccc2O1)C(=O)Cc1coc2cc3c(cc12)CCC3 (stereo not drawn) | . | 14
Cc1cc(N2CCN(C3CCCCC3)CC2)c2nncn2n1 | . | 26
C=CCS(=O)(=O)Nc1ccccc1 | 0.2 | 1
O=C(Oc1c(C(=O)c2ccccc2)sc2ccccc12)c1ccco1 | -1.5 | 6
Cc1ccc(Sc2nc(C)cc(C)c2S(C)(=O)=O)cc1 | 1.6 | .
Cc1cc(N2CCOCC2)ccc1C=C1C(=O)c2ccccc2C1=O | 0.6 | -84
CCCC(=O)NCCc1cc2ccc(C)cc2[nH]c1=O | 1.2 | 5
CN(C)C(=O)c1ccc(NCc2cc(=O)oc3cc(O)ccc23)cc1 | . | -4
COc1ccc(CNCC(=O)N2CCN(C(=O)CNCc3ccc(OC)cc3)CC2)cc1 | -2.8 | 17
CCCCC(=O)Nc1cccc(C(=O)N/N=C/c2ccco2)c1 | . | -19
C#CCn1c(-c2ccccc2)nc2ccccc21 | . | -6
C=CCc1c(C)nc(SCC(=O)C(C)(C)C)[nH]c1=O | 0.0 | .
CCN(CC)CCNc1nc2c(c(=O)[nH]c(=O)n2C)n1Cc1ccccc1Cl | 0.5 | 7
Cc1ccc(S(=O)(=O)N2CCN(C(=O)OC(C)C)CC2)cc1 | 3.7 | 9
COCCn1c(Cc2ccccc2)nnc1SCC(=O)c1ccc2c(c1)CC(=O)N2 | . | -8
COC(=O)C(Cc1ccc(O)cc1)N1Cc2ccccc2C1=O (stereo not drawn) | -0.8 | .
O/N=C/c1ccc(-c2cc(Cl)ccc2Cl)o1 | . | 12

The whole of this part, previewed entries included:
SMILES | MgrA DNA FP | Sa helicase inh
CC(=O)N1CC(C(=O)Nc2ccc(S(=O)(=O)N3CCOCC3)cc2)Oc2ccccc21 (stereo not drawn) | . | 10
CCC(=O)NC(Nc1ccc(O)cc1)(C(F)(F)F)C(F)(F)F | -0.4 | .
CCN(CC1COc2ccccc2O1)C(=O)Cc1coc2cc3c(cc12)CCC3 (stereo not drawn) | . | 14
Cc1cc(N2CCN(C3CCCCC3)CC2)c2nncn2n1 | . | 26
C=CCS(=O)(=O)Nc1ccccc1 | 0.2 | 1
O=C(Oc1c(C(=O)c2ccccc2)sc2ccccc12)c1ccco1 | -1.5 | 6
Cc1ccc(Sc2nc(C)cc(C)c2S(C)(=O)=O)cc1 | 1.6 | .
Cc1cc(N2CCOCC2)ccc1C=C1C(=O)c2ccccc2C1=O | 0.6 | -84
CCCC(=O)NCCc1cc2ccc(C)cc2[nH]c1=O | 1.2 | 5
CN(C)C(=O)c1ccc(NCc2cc(=O)oc3cc(O)ccc23)cc1 | . | -4
COc1ccc(CNCC(=O)N2CCN(C(=O)CNCc3ccc(OC)cc3)CC2)cc1 | -2.8 | 17
CCCCC(=O)Nc1cccc(C(=O)N/N=C/c2ccco2)c1 | . | -19
C#CCn1c(-c2ccccc2)nc2ccccc21 | . | -6
C=CCc1c(C)nc(SCC(=O)C(C)(C)C)[nH]c1=O | 0.0 | .
CCN(CC)CCNc1nc2c(c(=O)[nH]c(=O)n2C)n1Cc1ccccc1Cl | 0.5 | 7
Cc1ccc(S(=O)(=O)N2CCN(C(=O)OC(C)C)CC2)cc1 | 3.7 | 9
COCCn1c(Cc2ccccc2)nnc1SCC(=O)c1ccc2c(c1)CC(=O)N2 | . | -8
COC(=O)C(Cc1ccc(O)cc1)N1Cc2ccccc2C1=O (stereo not drawn) | -0.8 | .
O/N=C/c1ccc(-c2cc(Cl)ccc2Cl)o1 | . | 12
CC(Sc1nnc(-c2cccnc2)n1N)C(=O)Nc1ccc2c(c1)OCCO2 (stereo not drawn) | . | -10
O=C(COC(=O)c1cccnc1)NC(c1ccccc1)c1ccccc1 | -2.5 | -27
CN(C1CCCC1)C1CCN(C(=O)CNC(=O)/C=C/c2ccccc2)CC1 | 1.1 | 18
CC(C)NC(=O)CCn1c(=S)[nH]c2cc3c(cc2c1=O)OCO3 | . | -12
CC(=O)NCN1CCN(CNC(C)=O)CC1 | . | 22
CCCc1nc2oc3c(-c4ccccc4)c(C(=O)O)c(C)nc3c2c2c1COC(C)(C)C2 | . | 6
CCOC(=O)c1ccc2c(c1)nc(C1CCN(S(=O)(=O)c3cccs3)CC1)n2CC | . | 10
O=C(CSc1ncccn1)Nc1ccc2c(c1)CCC2 | . | -16
CCC(Sc1nncn2c1cc1occc12)C(=O)Nc1ccccc1OC (stereo not drawn) | 0.8 | 6
C=CCn1c(SCC(=O)N2CCNC2=O)nc2scc(C3CC3)c2c1=O | . | -10
Cc1ccc(C)n1-c1ccc2c(c1)COC2=O | . | 11
CCOc1ccc(O)c(C(=O)C(F)(F)F)c1 | . | -6
CC(C)CN(CC(C)C)S(=O)(=O)c1cccc2cccnc12 | 1.9 | 8
O=C(O)c1ccc(CN2CCCCC2)cc1 | -4.5 | 12
O=C(CSc1ccccn1)N1CCc2ccccc21 | -2.4 | 0
O=c1c2ccccc2[nH]c(=S)n1/N=C/c1ccccc1 | . | 6
O=C(NC(C(=O)O)c1ccccc1)c1ccccc1 (stereo not drawn) | -2.0 | .
CC(C)c1ccc(NCN2C(=O)CCC2=O)cc1 | -1.4 | .
CCOc1cc(C(C2C(=O)CC(C)(C)CC2=O)C2C(=O)CC(C)(C)CC2=O)ccc1OCc1c(C)no[n+]1[O-] | . | 15
CCc1cccc(NC(=O)CN(C)Cc2ccccc2OC)c1 | . | 4
CC1=CCC2C(=O)N(CCCC(=O)O)C(=O)C2C1 (stereo not drawn) | 2.0 | 6
Cn1c(O)c(/C=N/c2sc3c(c2C#N)CCCC3)c2ccccc21 | 19 | -13
O=CNC(C(=O)Nc1cccc(Cl)c1)c1ccccc1Cl (stereo not drawn) | -1.4 | 17
O=C1CN(c2ccccc2)C=NN1 | 1.4 | -7
O=C1C(=Nc2ccccc2)c2ccccc2N1CN1CCN(c2ccccc2)CC1 | -1.7 | 6
O=c1c2cc(NC(=S)NC3CCCCCC3)ccc2nc2n1CCCCC2 | -2.6 | -3
COC(=O)c1ccc2[nH]c(C)cc(=O)c2c1 | 0.5 | 8
O=C(Nc1ccc(Br)cc1)c1noc2c1CCc1ccccc1-2 | 0.6 | 9
CCCCN(C)S(=O)(=O)c1ccc(C(=O)Nc2nc3ccc4ccccc4c3s2)cc1 | 4.5 | 1
CC(OC(=O)Cn1cnc2c1c(=O)n(C)c(=O)n2C)C(N)=O (stereo not drawn) | . | -6
C=CCC1C=CCC(CC=C)N1C(=O)CCC(=O)O (stereo not drawn) | 4.5 | -10
Further entries follow.
SMILES | MgrA DNA FP | Sa helicase inh
O=C(Oc1ccc(-c2csnn2)cc1)C1CC1 | -1.9 | .
COc1ccc(N2C(=O)/C(=C\c3ccco3)N=C2SCC(=O)/C(C#N)=C(\C)N)cc1Cl | . | -64
Cc1ccc(NC2=C/C(=N/S(=O)(=O)c3ccc(F)cc3)c3ccccc3C2=O)cc1C | 3.2 | 17
CC1(C)CC(=O)C(C=Nc2cccc(NC3=C(C#N)C(=O)CC(C)(C)C3)c2)=C(O)C1 | 0.8 | 7
CSc1c(C#N)c(N)nn1C | 4.0 | .
CC(C)CCNC(=O)C1CCC(=O)N1CCc1ccccc1 (stereo not drawn) | 0.9 | 13
O=C(/C(=C(\O)c1ccccc1)c1ncc[nH]1)c1ccccc1 | . | 8
COc1ccc(CNC(=S)NC(C)C)cc1OC | . | -3
O=C(O)C1CCN(S(=O)(=O)N2CCOCC2)CC1 | . | 10
Cn1c(=O)cc(SCC(=O)N2CCCC2)c2ccc(Cl)cc21 | . | -25
CC(=O)NCc1ccc(C(=O)COC(=O)/C=C/c2ccc(C)o2)o1 | . | 17
CCC(=O)Nc1ccccc1C(=O)N(C)C | 3.0 | 8
Oc1ccc2ccccc2c1C=NN1CCN(Cc2ccccc2)CC1 | 6.5 | 3
Cc1cnc(=O)[nH]c1SCc1ccc(C(F)(F)F)cc1 | . | 7
Clc1ccc(Oc2cnccn2)c2ccccc12 | . | -14
O=C1Nc2ccccc2S/C1=C/c1cccs1 | -0.8 | .
CC(C)(CNC(=O)c1ccccc1OCCOc1ccccc1)N1CCOCC1 | . | 8
O=C(O)CC1S/C(=N/N=C/C=C/c2ccccc2)NC1=O (stereo not drawn) | . | 16
COc1ccc2nc(N3CCCC3=O)sc2c1 | 0.9 | 4
N#Cc1cnc(SCc2cc(=O)n3ccccc3n2)nc1N | -0.3 | 5
C=CCn1c(=O)[nH]c2cc(C(=O)NCc3ccccc3)ccc2c1=O | . | 7
Cc1ccccc1C(=O)Nc1ccc(NC(=O)c2ccc(C(C)(C)C)cc2)cc1 | 1.2 | 1
CC1=CCC(C(=O)N(Cc2cccnc2)Cc2ccc(Cl)cc2Cl)C(C(=O)O)C1 (stereo not drawn) | 1.3 | .
Cc1c(C(=O)NCCCN2CCCCC2)sc2nc3n(c(=O)c12)CCCC3 | . | 20
Cc1cc(C)n(CC(=O)NC2CCCCC2C)c(=O)c1C#N (stereo not drawn) | -1.9 | 8
O=S(=O)(c1ccc(F)cc1F)N1c2cccc3cccc(c23)S1(=O)=O | . | -1
NC(=S)N/N=C/c1ccc(Sc2cccc3cccnc23)o1 | 8.1 | 13
O=C(N/C=C/c1cccs1)NCc1ccc(C(F)(F)F)cc1 | 5.3 | .
CC1CN(c2oc(-c3ccccc3F)nc2C#N)CC(C)O1 (stereo not drawn) | . | 14
COc1ccc(-c2nn(-c3ccccc3)cc2C(=O)OCC(C)C)cc1 | 0.6 | 3
COc1ccc(OCC(=O)Nc2ccc3c(c2)OCO3)cc1 | 0.9 | 12
S=C1NC2CCCCC2N1 (stereo not drawn) | . | -11
N#C/C(=C\C=C\c1ccco1)c1nc2c(s1)CCCC2 | 9.5 | 5
Cc1cc(=O)[nH]c(SCC(=O)N2CCC(Cc3ccccc3)CC2)c1C#N | . | 11
CN(C1CCCCC1)S(=O)(=O)c1ccc(F)c(F)c1 | 0.8 | -13
Cc1ccc(Cn2nc(C)c(C(=O)N3CCC(n4c(=O)[nH]c5ccccc54)CC3)c2Cl)cc1 | . | 8
COc1cccc(NC(=S)Nc2ccc(Br)cc2Cl)c1 | -1.6 | .
CSc1nnc(SCC(=O)c2sc3ccc(Cl)cc3c2C)s1 | 0.1 | .
O=C(O)CSc1nnc(-c2ccccc2)n1-c1ccccc1 | 15 | 1
Cc1cc(C=C(C(=O)O)C(=O)O)c(C)n1Cc1ccco1 | . | -17
O=C(c1cccs1)N1CCCN(S(=O)(=O)c2cccc(Cl)c2Cl)CC1 | -5.0 | .
COc1cccc(NC(=S)NCc2ccncc2)c1 | 0.3 | .
CCOC(=O)CN1C(=O)C2(C(C#N)=C(N)Oc3n[nH]c(C)c32)c2ccccc21 (stereo not drawn) | 1.4 | -1
O=C(NCCSC(=O)c1ccc(Cl)cc1Cl)c1ccc(Cl)cc1Cl | 0.0 | .
CN(C(=O)c1ccccc1)C1CCCCC1 | -1.5 | .
Cc1cccc(OC(C)C(=O)O)c1 (stereo not drawn) | -4.8 | 2
COc1ccccc1NC(=O)CN(Cc1ccco1)C(=O)c1ccc(-n2c(C)ccc2C)cc1 | . | -14
CN(C)CCCNCc1ccco1 | 5.2 | 5
COc1cccc(NC(=O)C2C3C=CC(C4CC34)C2C(=O)O)c1 (stereo not drawn) | 4.8 | -8
Cc1ccc(C(=O)C2=C(N)OC3=C(C(=O)CC(C)(C)C3)C2c2ccccc2)cc1 (stereo not drawn) | 0.8 | 9
Continuation:
SMILES | MgrA DNA FP | Sa helicase inh
CN(C)c1sc(C#N)cc1-c1ccccc1 | -1.9 | .
COc1cc(S(=O)(=O)N2CCC3(CC2)OCCO3)ccc1-n1cnnn1 | . | -29
COc1ccc(Oc2ccc(C(F)(F)F)cc2NS(=O)(=O)c2cccc3nonc23)cc1 | -12 | .
COc1ccc(N(C(=O)c2snc(C(N)=O)c2N)C(C(=O)NCc2ccc(F)cc2)c2ccc(C)o2)c(OC)c1 (stereo not drawn) | 0.6 | 9
Cc1cc(Cl)ccc1NC(=O)CSc1nnc(/N=C/N(C)C)s1 | . | 8
Cc1c(N=Nc2cnc(NC(=O)c3ccccc3)s2)c(=O)n(-c2ccccc2)n1C | . | -1
O=C(/C=C/c1ccc(Br)o1)OCC(=O)c1cccc(C(F)(F)F)c1 | 2.5 | -15
N#C/C(=C/c1ccco1)c1ccc(Br)cc1 | -0.2 | -4
O=C(O)CSc1cccc(Cl)c1Cl | 0.7 | .
N=c1c(Cl)cc(C(F)(F)F)cn1O | 0.8 | .
O=C(NCC(=O)N1CCOCC1)c1ccccc1 | 0.8 | 6
CC(C)(C)C(=O)COC(=O)c1cc2ccccc2cc1O | . | -23
O=[N+]([O-])c1ccc(S(=O)(=O)c2ccc(Cl)cc2)cc1O | 1.0 | .
CCOC(=O)C(CC)n1c(Br)nc2c1c(=O)[nH]c(=O)n2C (stereo not drawn) | 3.0 | -3
CC(=O)N1N=C(c2ccc(Br)cc2)CC1c1ccccc1F (stereo not drawn) | -0.8 | .
COC(=O)c1nn(-c2cccc(Cl)c2)cc(OC)c1=O | . | 17
Nc1nc2c(ccc3[nH]c(=O)c(=O)[nH]c32)s1 | 6.8 | 12
CCn1cc(CC(=O)O)c2ccccc21 | -2.2 | 20
Cc1ccc(-c2nc(N)sc2CC(=O)OCC(=O)N2CCOCC2)cc1 | . | -6
COc1ccc(NCc2nnc(SCC(=O)c3ccc(OC)cc3)n2C)cc1 | -0.6 | 2
CCOC(=O)c1csc(-c2ccc(C(F)(F)F)cc2)n1 | -2.3 | .
CC(=O)Nc1ccc(S(=O)(=O)N2CCN(Cc3ccccc3Cl)CC2)cc1 | -4.5 | 5
N#CC(C#N)Sc1nc2ccccc2[nH]1 | 0.7 | .
O=C(NCCC(c1ccccc1)c1ccccc1)c1cccs1 | -0.5 | -4
N#Cc1sc(C(N)=O)c(-c2ccco2)c1-c1ccco1 | 1.1 | .

Entries of single compounds as entered above. Screens in order: MgrA DNA FP | Sa helicase inh
O=C(NCCC(c1ccccc1)c1ccccc1)c1cccs1 reads -0.5 | -4
N#CC(C#N)Sc1nc2ccccc2[nH]1 reads 0.7 | .

Bioassay records from PubChem.
